Screens from PubChem BioAssay.
AID923 – qHTS Assay for Allosteric/Competitive Inhibitors of Caspase-1: Spectroscopic Profiling in AFC Spectral Region. compound fluorescence, AFC spectral region (405/520 nm); almost no hit is shown here. Potency, µM (series often up to 57.5 µM), inactives show at the highest dose fluorescence increase, hits mostly activators. 1.1% of 75,000 active. AID 923, 2007; active = well fitted activation curve with a large enough effect; inconclusive = small, poorly fitted or top-dose-only effect;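 also: potency is read from the fitted curve at half-maximal effect; 0% is about no effect; scaled to a free AFC standard on each plate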
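Baseline compound fluorescence (AFC region, 405 nm ex/520 nm em) taken from the intercept of kinetic reads with 50 nM caspase-1 and 5 uM Ac-WEHD-AFC; normalized to an on-plate AFC standard curve; compounds titrated up to 57 uM.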
TSHR ag – activates the human thyroid stimulating hormone receptor | P16473 | HEK293-CNG-TSHR cells (CNG channel as cAMP sensor), membrane potential dye, cAMP | Potency, µM (series often up to 57.1 µM), inactives show top-dose activation, actives largely listed as activators | 0.48% of 73,000 active | AID 926; active = well fitted activation curve of enough size with the parental cells flat; inconclusive = any curve in the parental cells; inactive = parental cells flat and receptor cells flat or falling; also: potency is read from the fitted curve at half-maximal effect; % of control where 0% means no effect; weak receptor curves with flat parental cells got no call and are not listed
Target sequence (P16473 whole entry, looked up): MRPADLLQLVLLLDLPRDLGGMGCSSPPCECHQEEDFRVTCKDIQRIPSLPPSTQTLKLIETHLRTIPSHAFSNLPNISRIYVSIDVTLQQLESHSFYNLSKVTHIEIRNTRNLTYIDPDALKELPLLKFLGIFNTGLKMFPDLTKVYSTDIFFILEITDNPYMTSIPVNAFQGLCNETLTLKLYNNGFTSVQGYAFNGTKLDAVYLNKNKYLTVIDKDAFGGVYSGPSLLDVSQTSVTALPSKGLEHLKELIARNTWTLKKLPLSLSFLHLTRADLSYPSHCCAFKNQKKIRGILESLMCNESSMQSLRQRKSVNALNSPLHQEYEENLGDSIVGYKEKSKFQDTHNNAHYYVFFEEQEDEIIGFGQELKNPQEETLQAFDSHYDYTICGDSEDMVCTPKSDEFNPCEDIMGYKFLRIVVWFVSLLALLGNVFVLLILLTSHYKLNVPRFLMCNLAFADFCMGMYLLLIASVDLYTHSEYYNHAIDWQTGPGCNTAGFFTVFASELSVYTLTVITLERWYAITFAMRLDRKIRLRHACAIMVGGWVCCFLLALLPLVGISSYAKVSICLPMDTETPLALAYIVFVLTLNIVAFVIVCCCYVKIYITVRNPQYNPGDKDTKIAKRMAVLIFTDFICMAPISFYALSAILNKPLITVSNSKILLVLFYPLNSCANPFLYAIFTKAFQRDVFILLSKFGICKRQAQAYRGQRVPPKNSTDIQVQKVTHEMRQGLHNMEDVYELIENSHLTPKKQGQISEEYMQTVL
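HEK 293 cells stably expressing TSHR and a cAMP-gated CNG channel; parental CNG-only cells as counterscreen. Cells preloaded 60 min with membrane potential dye plus 100 uM RO 20-1724, then compound 30 min; fluorescence read at 590 nm.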
A647 autofl – compound autofluorescence in A647 spectral region; Compound fluorescence, A647 channel (570/671 nm), Tris buffer; max dye-equivalent concentration, M; 59,000 tested, under 10 active; active means above 1 µM dye equivalent; inconclusive means 0.1 to 1 µM; inactive means 0.1 µM or less;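 also: values scaled relative to a standard on each plate; highest value over a series up to 38 µM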
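Compound fluorescence was measured in 100 mM Tris buffer, pH 8.0, after 15 min at room temperature, using 570 nm excitation and 671 nm emission filters. Signal was normalized to a per-plate Alexa 647 standard curve and expressed as dye-equivalent concentration at each compound concentration.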
A488 fluor – compound fluoresces in the A488 spectral region; compound autofluorescence, A488 spectral region, dye equivalency; hits give high values; max dye equivalency, M; 0.1% of 59,000 active; active = above 10 nM dye equivalent; inconclusive = 1 to 10 nM; inactive = 1 nM or less; about half of its hits are not listed in these tables;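 also: highest value over a series up to 38 µM; compound alone in buffer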
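Read-out: relative fluorescence at 480/540 nm, expressed as Alexa 488 dye-equivalent concentration from a six-point A488 standard included per plate. Conditions: 100 mM Tris, pH 8.0; 15 min incubation, room temperature.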
Resorufin fluor – compounds fluorescent in resorufin spectral region; Compound fluorescence, resorufin region 547/598 nm, buffer; hits give high values; max dye-equivalent concentration, M; 0.04% of 59,000 active; AID 588; active = above 10 nM dye equivalent; inconclusive = 1 to 10 nM; inactive = 1 nM or less; a few of its hits are not listed in these tables; also: highest value over a series up to 38 µM
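Compounds in 100 mM Tris, pH 8.0, incubated 15 min at room temperature, then fluorescence read at 547 nm excitation/598 nm emission. Signal converted to dye-equivalent concentration via an on-plate six-point resorufin standard curve, per compound concentration.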
Starred values were filed as active, the others as inactive; i = inactive; ? = inconclusive; . = no result given; [ ] = another dose, or the depositor's remark.

Under each structure – AID923, TSHR ag, A647 autofl, A488 fluor, Resorufin fluor
1) COc1ccc(OC)c(S(=O)(=O)Nc2ccc3oc4c(c3c2)C(=O)CCC4)c1
 : -0.6%, ?, 4.2e-08, i, i
2) CCOc1ccc(C(C#N)N2CCOCC2)cc1OC (configuration not stated)
 : 0.4%, 2%, 5.6e-09, i, i
3) Cc1nnc(NC(=O)c2ccc(C)c(S(=O)(=O)N3CCCCCC3)c2)s1
 : -0.7%, 24%, 1.8e-08, i, i
4) CCOC(=O)CNC(=O)CSc1ncnc2c1cnn2-c1ccc(Cl)cc1
 : 0.3%, 19%, 7.2e-08, i, i
5) Nc1nnc(COc2cccc(C(F)(F)F)c2)s1
 : -1.0%, -1%, 3e-08, i, i
6) CC(=O)c1ccc(N2C(=O)NC3(CCCCC3)C2=O)cc1
 : -0.4%, -4%, 2.9e-08, i, i
7) CC(C(=O)Nc1sccc1C(N)=O)N1C(=O)C2CC=CCC2C1=O (configuration not stated)
 : -0.5%, 1%, 4.7e-09, i, i
8) COC(=O)c1[nH]c2cc(OC)ccc2c1NC(=O)CCN1CCN(Cc2ccc3c(c2)OCO3)CC1
 : -0.5%, -10%, 4.3e-09, i, i
9) CC1NC(=O)N(C)C2NC(=O)N(C)C(c3ccccc3)C12 (configuration not stated)
 : -2.2%, -3%, 2.4e-08, i, i
10) Cc1cccc(NC(=O)c2ccc(NS(=O)(=O)c3c(C)noc3C)cc2)c1
 : 0.0%, -10%, 1e-09, i, i
11) COc1ccc2cc(C(=O)N3CCOCC3)sc(=O)c2c1OC
 : 2.1%, 3%[11.4 µM], 3.8e-08, i, i
12) O=C(C1COc2ccccc2O1)N1CCn2c(nc3ccccc32)C1 (configuration not stated)
 : 4.2%, 19%, ., ., .
13) COc1ccc(-c2nnc(-c3ccc(N)cc3)o2)cc1
 : 1.1%, -1%, 1e-09, i, i
14) O=C(CSc1nnc(-c2cccnc2)n1Cc1ccco1)c1ccc2ccccc2c1
 : 0.8%, 6%, 1.8e-08, i, i
15) Cc1ccc(N=C2NC(=O)CS2)c(C)c1
 : 0.2%, 7%, 1.7e-08, i, i
16) CCCCn1nnnc1NCc1ccc(OC)c(OC)c1OC
 : 0.6%, -3%, 3.2e-09, i, i
17) COc1ccc(C(=O)N2CCN=C2SCc2cccnc2)cc1OC
 : -0.7%, 1%, ., ., .
18) CNS(=O)(=O)c1cccc(C(=O)NCC(c2cccs2)N(C)C)c1 (configuration not stated)
 : -0.2%, -1%, 1e-09, i, i
19) CCOC(=O)Nc1ccc2c(C)cc(=O)oc2c1
 : 3.2%, 3%, 3.1e-09, i, i
20) O=C1[C@@H]2[C@@H]3C=C[C@H]([C@@H]2C(=O)N1CN1CCSCC1)[C@@H]1[C@@H]2C(=O)N(CN4CCSCC4)C(=O)[C@@H]2[C@H]31
 : -0.1%[11.5 µM], -3%[11.4 µM], 1e-09, i, i
21) C=CCn1c(CNC(=O)CCC)nc2ccccc21
 : 0.9%, -2%, 3e-09, i, i
22) COc1ccc(Cc2nnc(SC)[nH]c2=O)cc1OC
 : -2.4%, 6%, 7.5e-09, i, i
23) CC1Cc2ccccc2N1C(=O)Cn1nnc(-c2ccccc2NC(=O)C2CCC2)n1 (configuration not stated)
 : 1.7%, ?, 7.6e-09, i, i
24) Cn1nc(-c2ccc(Cl)cc2)c2cc(C(=O)N3CCCC3)sc21
 : -0.4%, 20%, ., ., .
25) COC(=O)c1cc(=O)c2ccc(OC)cc2o1
 : 0.3%, 2%, ., ., .
26) Cc1ccc(N=Cc2nc(-c3ccco3)oc2O)cc1
 : 3.0%, -23%, 2.4e-09, i, i
27) C=CCNC(=O)C1CCCN(S(C)(=O)=O)C1 (configuration not stated)
 : 1.0%, -4%, 1e-09, i, i
28) CCOc1ccccc1C(=O)N(CCC(=O)OC)c1ccccn1
 : 1.3%, 20%, 3.8e-08, i, i
29) COC(=O)c1cc(Br)c(=O)n(-c2ccccn2)c1
 : -0.2%, ., 2.9e-09, i, i
30) CN1C(=O)CC(N2CCN(CCN=CC3=C(O)CC(C)(C)CC3=O)CC2)C1=O (configuration not stated)
 : -0.1%, -7%, 1e-09, i, i

Values in list order from the list.
Resorufin fluor for entries 1–11 → i, i, i, i, i, i, i, i, i, i, i
AID923 for entries 1–11 → -0.6%, 0.4%, -0.7%, 0.3%, -1.0%, -0.4%, -0.5%, -0.5%, -2.2%, 0.0%, 2.1%

The list continues.
Under each structure – AID923, TSHR ag, A647 autofl, A488 fluor, Resorufin fluor
31) COCCCNC(=O)c1cc(C)nc2ccc(F)cc12
 : 2.1%, 0%, 2.8e-09, i, i
32) CCOCC(=O)Nc1cccc(Br)c1
 : -4.3%, 27%, 1e-09, i, i
33) COC(=O)NC(c1ccccc1)[C@]1(C(C)=O)CCCC1=O (some centres not stated)
 : -0.3%[11.5 µM], ?, ., ., .
34) CC(=O)OC1c2ccccc2C(=O)N1Cc1ccccc1Cl (configuration not stated)
 : 0.6%, 16%, ., ., .
35) COc1ccc(OC)c(S(=O)(=O)N2CCN(c3c(C)cccc3C)CC2)c1
 : -1.2%, 12%, ., ., .
36) CCNS(=O)(=O)c1ccc(NC(=O)c2cccnc2)cc1
 : -2.5%, -1%, ., ., .
37) COc1ccccc1C(=O)Nc1ccc2c(c1)nc(CCNC(C)=O)n2C
 : 0.3%, -3%, 1e-09, i, i
38) O=S(=O)(c1cccc(S(=O)(=O)N2CCC(n3nnc4ccccc43)CC2)c1)N1CCCCC1
 : 2.5%, ?, 2.3e-08, i, i
39) COc1ccccc1CNc1ncnc2ccc(-c3cccc(NS(C)(=O)=O)c3)cc12
 : -1.2%, 27%, 3.4e-08, i, i
40) CCC(=O)N1CCc2cc(S(=O)(=O)NCCCN3CCN(Cc4ccccc4)CC3)ccc21
 : -0.1%, ?, 5.5e-09, i, i
41) CC1CCCN(C(=O)CN2C(=O)c3ccccc3C2=O)C1 (configuration not stated)
 : -1.5%, 25%[11.4 µM], ., ., .
42) Cn1cccc1Cc1nnc(SCC(=O)NC2CCCCC2)n1-c1ccc(F)cc1
 : -0.8%, 2%, ., ., .
43) O=c1c2ccccc2nc2n1CCCCN2
 : -2.2%, 1%, 2.9e-08, i, i
44) Cc1cc(NC(=O)CCC(=O)N(c2ccc(F)cc2)C(C(=O)NC2CCCC2)c2ccncc2)no1 (configuration not stated)
 : -0.8%, 2%, 2.4e-09, i, i
45) CC(C)c1nnc(NC(=O)CC(=O)Nc2ccccc2C(=O)O)s1
 : 3.8%, -16%, 9e-09, i, i
46) COCCn1c(=O)c(-c2ccc(Cl)cc2)nc2cnc(OC)nc21
 : 12%, 1%, 1e-09, i, i
47) Cc1cccc(OCC2=NS(=O)(=O)c3ccccc3N2)c1
 : 0.8%, -2%, 1e-09, i, i
48) Cc1cccc(N2CCN(C(=O)c3ccc(CS(=O)(=O)c4ccccc4C)o3)CC2C)c1 (configuration not stated)
 : -0.9%, ?, 6.1e-09, i, i
49) CCCOCC1CC2(SC(=Nc3ccc(C)cc3)NC2=O)C(=O)O1 (configuration not stated)
 : 0.7%, 11%, 1.7e-09, i, i
50) N#CC1=C(SCc2ccccc2)NC(=O)CC1c1ccc(O)cc1 (configuration not stated)
 : 2.1%, -9%[11.4 µM], ., ., .
51) CCOC(=O)CSc1nnc(CSc2nc(N)c3c(C)c(C)sc3n2)n1-c1ccccc1
 : 0.8%, ?, ., ., .
52) O=C(Nc1c(C(=O)N2CCCC2)cnn1-c1ccccc1)c1cccc(F)c1
 : -0.2%, -1%, ., ., .
53) Cc1nc(NC(=O)CCC(=O)O)sc1C(=O)N(C)C
 : -2.1%, 2%, 1e-09, i, i
54) CN(C)S(=O)(=O)c1ccc2c(c1)c(=O)c(C(=O)N1CCN(c3ccccn3)CC1)cn2C
 : -3.8%, ?, ., ., .
55) COc1ccc(NC(=O)C(c2ccc(OC)cc2)N(C)C(=O)c2cnccn2)cc1 (configuration not stated)
 : 1.0%, ?, 1e-09, i, i
56) CC(C)(C)C1CCc2nc(NC(=O)Cc3cn4ccsc4n3)sc2C1 (configuration not stated)
 : -0.2%, 0%, 2.8e-09, i, i
57) COc1ccc(S(=O)(=O)Cc2ccc(C(=O)NCc3ccc(F)cc3)o2)cc1
 : -1.2%, -13%, ., ., .
58) C=C(C)c1ccc(C(C)(C)NC(=O)N2CCN(C)CC2)cc1
 : -2.8%, 6%, 1.4e-09, i, i
59) O=C(NCc1ccccn1)c1cn(Cc2ccccc2)nn1
 : 0.9%, 2%, 1.5e-08, i, i
60) CCCc1cc(=O)[nH]c(SCC(=O)c2ccc(S(=O)(=O)N3CCCC3)cc2)n1
 : 0.4%, 8%, 3.7e-08, i, i
61) Cc1ccc2cc3c(NC(=O)c4cccnc4)nn(C)c3nc2c1
 : 5.3%, ?, 2.3e-09, i, i
62) O=C(c1cccs1)N(CCO)Cc1cc2cc3c(cc2[nH]c1=O)OCCO3
 : 1.2%, -1%, 3.8e-08, i, i
63) Nc1nnc(SCC(=O)N2CCN(c3ccccc3)CC2)s1
 : 1.5%, 2%, 3.2e-08, i, i
64) O=C(Nc1cccc2ncccc12)c1cc2ccccc2o1
 : 1.0%, 9%, 1e-09, i, i
65) N#C/C(=C\c1c(N2CCOCC2)nc2ccccn2c1=O)S(=O)(=O)c1ccccc1
 : 5.7%, -6%, ., ., .
66) COc1ccc(NS(=O)(=O)c2ccc(NS(C)(=O)=O)cc2)cc1
 : 1.5%, 6%[11.4 µM], ., ., .
67) COc1ccccc1NC(=O)CCn1c(=O)sc2ccccc21
 : -0.2%, 12%, 2.5e-08, i, i
68) CN(C)c1oc(-c2ccccc2Cl)nc1C#N
 : 0.2%, 12%, 2.5e-08, i, i
69) CCCCn1c(N)c(N(CCC(C)C)C(=O)CSc2nnc(C)s2)c(=O)[nH]c1=O
 : 0.1%, 3%, 1.7e-08, i, i
70) CC(=O)N1CCc2cc(S(=O)(=O)NCCCOC(C)C)ccc21
 : -3.9%, 18%, 1.1e-08, i, i
71) O=C(c1nnc(-c2ccncc2)o1)c1ccccc1Cl
 : -1.0%, -6%, 1e-09, i, i
72) CCCCS(=O)(=O)Nc1ccc(Cc2ccncc2)cc1
 : -1.5%, -6%, 1.2e-08, i, i
73) CCOc1ccccc1C(=O)NCC(=O)OCC(=O)c1ccc2c(c1)OCCO2
 : 0.2%, ?, 3.6e-09, i, i
74) COc1ccc(CC(NC(C)=O)C(=O)NC2CCN(C(=O)NCc3ccccc3)CC2)cc1OC (configuration not stated)
 : 2.8%, 4%, 3.2e-09, i, i
75) CCOC(=O)C1CCCN(S(=O)(=O)c2cccc3cccnc23)C1 (configuration not stated)
 : 0.6%, 11%, 1.5e-08, i, i
76) COc1cc(C(=O)N(Cc2ccccn2)CC2CCCO2)cc(OC)c1OC (configuration not stated)
 : -0.2%, -2%, 3.1e-08, i, i
77) c1cn(-c2ncnc3ccc(-c4ccoc4)cc23)cn1
 : 4.2%, 1%, 1e-09, i, i
78) O=C(O)c1ccc(S(=O)(=O)N2CCC(c3nc(-c4ccccc4Cl)no3)CC2)cc1
 : 0.4%, -11%, 1e-09, i, i
79) Cc1ccccc1NC(=O)N1CCCC(c2nc(-c3ccc(F)cc3)no2)C1 (configuration not stated)
 : -1.8%, ?, 3.2e-09, i, i

Limited to Resorufin fluor, A647 autofl and TSHR ag, for 4 of the compounds above:
| No. | compound | Resorufin fluor | A647 autofl | TSHR ag |
| --- | --- | --- | --- | --- |
| 67 | COc1ccccc1NC(=O)CCn1c(=O)sc2ccccc21 | i | 2.5e-08 | 12% |
| 68 | CN(C)c1oc(-c2ccccc2Cl)nc1C#N | i | 2.5e-08 | 12% |
| 69 | CCCCn1c(N)c(N(CCC(C)C)C(=O)CSc2nnc(C)s2)c(=O)[nH]c1=O | i | 1.7e-08 | 3% |
| 70 | CC(=O)N1CCc2cc(S(=O)(=O)NCCCOC(C)C)ccc21 | i | 1.1e-08 | 18% |

These rows are one share of the data; rates above refer to the full screens.
